Screening results: PubChem BioAssay, National Center for Advancing Translational Sciences (NCATS)
miR-21 FLuc – qHTS Assay for Modulators of miRNAs and/orActivators of miR-21 | HeLa miR-21 FLuc reporter, luciferase, 48 h | 340,000 tested, under 10 active | Potency, µM (series often up to 38.3 µM), for the others: at the highest dose reporter change, positive = more light; active = well fitted rising curve with a large enough effect; inconclusive = small, poorly fitted or top-dose-only effect; inactive = no such curve, though single readings can be large or run the other way;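 note: % of control where 0% means no effect; miR-21 action dims this reporter so a rising signal means less miR-21 action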
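Using DMEM plus 10% FBS, HeLa miR-21-FLuc cells are incubated with test compounds (final up to about 40uM) for 48 hours; firefly luciferase signal is then imaged following reagent-mediated lysis.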
Rango dissoc inh – qHTS Assay for Inhibitors of RanGTP induced Rango (Ran-regulated importin-beta cargo) - Importin beta complex dissociation; Biochemical FRET Rango-importin beta, RanGTP-induced dissociation; Potency, µM (top dose mostly 46.1 µM), for the others: top-dose activity change, negative = inhibition; hit rate 0.071% among 340,000; Snurportin-1 (Homo sapiens) + GTP-binding nuclear protein Ran (Homo sapiens) + Importin …; AID 540253, 2011; active means falling FRET ratio curve, often poorly fitted, with flat reads before Ran was added; inconclusive means other falling curves, or compound fluorescence or quenching; inactive means flat or rising ratio curve;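 note: potency is the fitted concentration of half-maximal effect; % of control where 0% means no effect; nearly all actives have a fitted effect of over 45% in size; -100% = wells without RanGTP and RCC1; the record marks most hits as doubtful in a second field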
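Two FRET readings bracket the reaction: one 5 min after compound meets Rango–importin beta, another 45 min after RanGTP-RCC1 (0.6 uM Ran, 0.2 uM RCC1, 2 mM GTP) is added. Only the second defines inhibition.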
Rango-impB inh – qHTS Assay for Inhibitors of Rango (Ran-regulated importin-beta cargo) - Importin beta complex formation; Importin subunit beta-1 (Homo sapiens), Q14974; Rango CFP/YFP FRET sensor + importin beta, 45 min; Potency, µM (highest dose often 92.2 µM), without a hit: at the top dose inhibition of complex formation; hit rate 0.031% among 340,000; AID 540263, 2011; active = rising FRET ratio curve, often small or poorly fitted; inconclusive = mostly compound fluorescence or quenching in the first reads; inactive = flat curves in all reads;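 note: potency is the fitted concentration of half-maximal effect; 0% = DMSO wells and 100% = buffer wells lacking importin beta; nearly all actives have a fitted effect of over 15% in size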
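FRET biosensor (snurportin 1 IBB flanked by EYFP and cerulean), 50 nM, with compound 5 min, then 0.125 microM importin beta in PBS, 1 mM DTT, 0.02% Tween-20, 0.1% BSA. CFP/YFP ratio read after 45 min at room temperature; pre-read flags interference.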
GLA inh pH 4.5 – qHTS Assay for Inhibitors of Human alpha-Galactosidase at pH 4.5 | Alpha-galactosidase A (Homo sapiens), P06280 | purified enzyme, 4-MU-alpha-Gal fluorescence, pH 4.5 | activity change, negative = inhibition, % at 105 µM | 230,000 tested, under 10 active | AID 1467, 2008; inconclusive = small, poorly fitted or top-dose-only inhibition, or a rising curve; inactive = flat fitted curve, though single readings scatter; no compound was filed as active;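 note: 0% = full activity with enzyme and -100% = basal without enzyme; dose as in the result columns while the protocol names 77 µM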
Target sequence (P06280 whole entry, looked up): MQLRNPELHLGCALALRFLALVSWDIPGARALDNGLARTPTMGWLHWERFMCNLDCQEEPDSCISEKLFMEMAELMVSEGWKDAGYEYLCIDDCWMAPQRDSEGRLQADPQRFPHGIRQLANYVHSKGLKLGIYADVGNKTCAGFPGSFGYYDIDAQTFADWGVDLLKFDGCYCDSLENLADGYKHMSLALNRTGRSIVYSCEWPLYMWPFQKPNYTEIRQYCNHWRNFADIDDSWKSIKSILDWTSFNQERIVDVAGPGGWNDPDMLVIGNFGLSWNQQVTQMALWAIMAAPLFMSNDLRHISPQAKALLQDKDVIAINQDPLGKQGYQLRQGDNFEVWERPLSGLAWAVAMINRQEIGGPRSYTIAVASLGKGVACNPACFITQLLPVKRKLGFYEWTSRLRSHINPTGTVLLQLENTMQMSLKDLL
* marks the source's active call; other numbers are inactive results; ? = inconclusive; nt = no result given; & = joins results of further samples. A portion of the library; the hit share may differ from the screen's.

| miR-21 FLuc | Rango dissoc inh | Rango-impB inh | GLA inh pH 4.5 | smiles |
| --- | --- | --- | --- | --- |
| nt | -16% | -1.7% | nt | Cc1ccc(NC(=O)CN2CCN(C)CC2)cc1S(=O)(=O)N1CCOCC1 |
| 0% | -6% | 6.6% | -2 | O=C(c1ccccc1Nc1ccc(SC(F)F)cc1)N1CCCCC1 |
| -3% | 0% | -1.1% | -3 | COc1cccc(-n2nnc3c(=O)n(C/C=C/c4ccccc4)cnc32)c1 |
| -10% | -12% | 2.1% | -15 | O=C(CSc1nnc(COc2ccc(Cl)cc2)n1Cc1ccco1)c1ccccc1F |
| -2% | 0% | -0.8% | -5 | Cc1noc(C)c1C(=O)OCC(=O)Nc1c(F)cccc1F |
| -3% | 10% | -2.8% | 8 | CCCCSc1nc2c(c(=O)[nH]c(=O)n2C)n1CCc1ccccc1 |
| -5% | -14% | 3.6% | nt | Cn1c(C(=O)N[C@@H](C(=O)O)c2ccccc2)cc2cc(Cl)ccc21 |
| -3% | 10% | 0.1% | -2 | CS(=O)(=O)c1ccc(Cl)c(NC(=O)Nc2ccccc2)c1 |
| -11% | 20% | 0.8% | 1 | CCOC(=O)C1CCN(C(=O)c2ccc(Br)o2)CC1 |
| 2% | -1% | -2.4% | -19 | O=C(c1ccco1)N1N=C(C2CCCCC2)CC1(O)C(F)(F)F (configuration not stated) |
| 4% | -5% | 0.0% | nt | Cc1ccc(CNC(=O)CCS(=O)(=O)c2ccc3c(c2)CC(C)N3C(=O)C2CC2)o1 (configuration not stated) |
| -41% | -3% | 1.5% | -2 | CCOC(=O)c1cnc(Nc2ccccc2)nc1C(F)(F)F |
| -54% | ? | ? | -18 | CC(=O)c1cc(C(=O)c2ccccc2)sc1Nc1ccccc1 |
| 0% | 1% | -0.9% | nt | O=C(CN1C(=O)S/C(=C\c2ccccn2)C1=O)Nc1ccc(F)cc1 |
| -4% | 10% | 5.2% | nt | O=C1C(=O)N(C2CCS(=O)(=O)C2)C(c2cccc(O)c2)/C1=C(/O)c1ccc(Cl)cc1 (configuration not stated) |
| 1% | -3% | -0.5% | -6 | COc1cccc(NC(=O)CSc2nnc(COc3ccc4c(c3)CCCC4)o2)c1 |
| -7% | -5% | 7.2% | -7 | CCc1ccc(CC)c(S(=O)(=O)Nc2ccc(C(=O)O)c(O)c2)c1 |
| -7% | 11% | 0.5% | -6 | CC(C)c1ccc(C(=O)N2CCCN(C(=O)c3ccc(C(C)C)cc3)CC2)cc1 |
| nt | ? | 1.7% | nt | COCCN(CC(=O)Nc1cccc(C)c1C)C(=O)c1ccc2ccccc2n1 |
| 0% | ? | ? | 1 | N=c1oc2ccc3ccccc3c2cc1C(N)=S |
| -6% | -8% | -0.3% | nt | COc1ccc(C(C(=O)NC2CCCCC2)N(C(=O)c2ccco2)c2ccccc2OC)cc1 (configuration not stated) |
| 0% | 0% | -1.5% | nt | CCn1c(SCC(=O)Nc2ccc3c(c2)OCO3)nnc1C1CC1 |
| -10% | 1% | -0.1% | 10 | Cc1nc2ccccc2nc1OCC(=O)NCc1ccc2c(c1)OCO2 |
| -12% | -25% | -0.7% | nt | O=C(CC1C(=O)NCCN1Cc1cccc(F)c1)NC1CCCCC1 (configuration not stated) |
| -1% | -7% | -5.0% | nt | COc1ccccc1Cn1c(=S)[nH]c2ccc(F)cc2c1=O |

Arranged by value in miR-21 FLuc (lowest first): some entries from above.
| Structure | miR-21 FLuc | Rango dissoc inh | Rango-impB inh | GLA inh pH 4.5 |
| --- | --- | --- | --- | --- |
| CCOC(=O)c1cnc(Nc2ccccc2)nc1C(F)(F)F | -41% | -3% | 1.5% | -2 |
| O=C(CC1C(=O)NCCN1Cc1cccc(F)c1)NC1CCCCC1 (configuration not stated) | -12% | -25% | -0.7% | nt |
| Cn1c(C(=O)N[C@@H](C(=O)O)c2ccccc2)cc2cc(Cl)ccc21 | -5% | -14% | 3.6% | nt |
| COc1cccc(-n2nnc3c(=O)n(C/C=C/c4ccccc4)cnc32)c1 | -3% | 0% | -1.1% | -3 |
| Cc1noc(C)c1C(=O)OCC(=O)Nc1c(F)cccc1F | -2% | 0% | -0.8% | -5 |
| COc1ccccc1Cn1c(=S)[nH]c2ccc(F)cc2c1=O | -1% | -7% | -5.0% | nt |
| Cc1ccc(CNC(=O)CCS(=O)(=O)c2ccc3c(c2)CC(C)N3C(=O)C2CC2)o1 (configuration not stated) | 4% | -5% | 0.0% | nt |

Structures shown so far with a CF3 group (2):
| miR-21 FLuc | Rango dissoc inh | Rango-impB inh | GLA inh pH 4.5 | smiles |
| --- | --- | --- | --- | --- |
| 2% | -1% | -2.4% | -19 | O=C(c1ccco1)N1N=C(C2CCCCC2)CC1(O)C(F)(F)F (configuration not stated) |
| -41% | -3% | 1.5% | -2 | CCOC(=O)c1cnc(Nc2ccccc2)nc1C(F)(F)F |

(listing goes on)
| miR-21 FLuc | Rango dissoc inh | Rango-impB inh | GLA inh pH 4.5 | smiles |
| --- | --- | --- | --- | --- |
| -2% | 37% | 0.0% | -10 | Cc1ncoc1C(=O)N1CCCC(C(=O)c2ccc3c4c(cccc24)CC3)C1 (configuration not stated) |
| nt | -20% | 5.8% | nt | O=C(N/N=C/c1ccccc1Br)c1cccc(S(=O)(=O)N2CCOCC2)c1 |
| -12% | -1% | 0.8% | 1 | CCC(CC)C(=O)Nc1cccc(/C(C)=N/NC(=O)c2c(Br)cnn2C)c1 |
| nt | -1% | 1.2% | nt | CCOC(=O)[C@H]1[C@H]2COc3ccccc3[C@@H]2N2C(=O)c3c(C)cc(C)cc3NC(=O)[C@@]12C |
| 1% | 15% | -0.4% | nt | COc1cccc(C(=O)NCC2CCCN(C3CCCCC3)C2)c1OC (configuration not stated) |
| -44% | -17% | -3.9% | 0 | CC(C)c1ccc2oc(-c3cc(N)ccc3O)nc2c1 |
| -3% | 12% | 2.4% | -3 | CC(=O)N/N=c1\sc2ccccc2n1C |
| nt | -11% | -0.7% | nt | C[C@H](CO)N1C[C@H](C)[C@@H](CN(C)C(=O)Nc2ccccc2)Oc2ccc(NC(=O)Nc3ccc4c(c3)OCO4)cc2C1=O |
| -32% | -9% | 0.2% | nt | O=C(Nc1nccs1)c1ccc(CSc2ccccc2)o1 |
| 1% | -3% | 3.0% | 0 | COc1ccc(C(=O)N[C@H](C(=O)N2CCN(c3ccccc3F)CC2)C(C)C)cc1 |
| -13% | 12% | -2.9% | -1 | O=C(NNC(=S)Nc1cccc(Cl)c1)c1ccccc1OC(F)F |
| -3% | -6% | -2.4% | -2 | Cn1cc(CN2CCCC(CO)(Cc3ccccc3)C2)cn1 (configuration not stated) |
| -38% | -4% | 0.2% | 0 | COCCn1c(C)cc(C2=NNC(=Nc3ccccc3)SC2)c1C |
| 1% | 16% | 6.6% | -6 | O=C(NNc1c(Cl)cccc1Cl)C1CCC1 |
| -1% | 1% | -0.8% | -7 | O=C(CSc1nnc2ccccn12)Nc1ccccc1C(=O)NC1CC1 |
| -13% | -24% | ? | 0 | O=C(CN1C(=O)c2cccc3cccc1c23)NCc1ccncc1 |
| -4% | 16% | 2.9% | -4 | CC(=O)Nc1cccc(NC(=O)CSc2ccc(-c3ccccn3)nn2)c1 |
| -2% | -12% | -5.9% | -2 | C=CCn1c(CCC(=O)O)ccc1-c1ccccc1 |
| 3% | -4% | 1.9% | -16 | O=S(=O)(/N=C(/Nc1ccc(F)c(F)c1F)c1ccccc1)c1ccccc1 |
| 9% | ? | ? | nt | CN(C)CCCNC(=O)/C(=C/c1ccc(-c2ccc([N+](=O)[O-])cc2)o1)NC(=O)c1ccccc1 |
| 6% | -1% | 6.8% | -7 | CCn1c(=O)cc(OCC(=O)N2CCN(C(=O)c3ccco3)CC2)c2ccccc21 |
| 2% | -1% | -0.6% | 2 | COc1ccc(/C(N)=N/OC(=O)c2cccs2)cc1OC |
| -2% | -4% | -0.5% | 23 | Nn1c(=O)[nH]c2c([nH]c3ccccc32)c1=O |
| nt | 14% | 1.0% | nt | CCOc1ccc(S(=O)(=O)Nc2cccc(C(=O)NCC(C)(C)N3CCOCC3)c2)cc1 |
| -19% | 0% | 0.1% | nt | CCc1ccc(-c2nc(CS(=O)CC(=O)NCCCN3CCOCC3)c(C)o2)cc1 (configuration not stated) |

The list continues:
| miR-21 FLuc | Rango dissoc inh | Rango-impB inh | GLA inh pH 4.5 | smiles |
| --- | --- | --- | --- | --- |
| -29% | 1% | -0.7% | 6 | Cc1ccc(-c2nnc(SCC(=O)NC(=O)Nc3ccc(C)cc3C)n2N)cc1 |
| 22% | ? | ? | 0 | O=c1[nH]c(CN2CCN(S(=O)(=O)/C=C/c3ccccc3)CC2)nc2cc(Cl)ccc12 |
| nt | -2% | 1.9% | nt | CON(C)S(=O)(=O)NC(=O)C1=C(N2CCCC2)COC1=O |
| 9% | -5% | -2.7% | nt | O=C(COc1ccc(S(=O)(=O)N2CCOCC2)cc1)Nc1cccc([N+](=O)[O-])c1 |
| 0% | -1% | 4.3% | 3 | CCOC(=O)C1CCCN1C(=O)c1ccc(OC)c(Br)c1 (configuration not stated) |
| -31% | -21% | 0.5% | 8 | CN(C)S(=O)(=O)c1ccc2nc(NC(=O)c3cccnc3)sc2c1 |
| -20% | 1% | 5.4% | nt | CC1Oc2ccccc2OC1C(=O)Nc1nccs1 (configuration not stated) |
| nt | -29% | ? | nt | CC(=O)OC[C@H]1O[C@@H](Oc2cc(O)cc3oc(-c4ccc(O)cc4)cc(=O)c23)[C@H](O[C@@H]2O[C@@H](C)[C@H](O)[C@@H](O)[C@H]2O)[C@@H](O)[C@@H]1O |
| -7% | -12% | 8.3% | nt | CC1(c2cccc(Br)c2)NC(=O)N(CC(=O)Nc2cccnc2Cl)C1=O (configuration not stated) |
| -36% | 13% | -0.5% | -1 | Cc1cc(-n2c(C)cc(C(=O)COc3ccccc3[N+](=O)[O-])c2C)no1 |
| 2% | -10% | 2.5% | 4 | CCCC[C@@H]1CNC(=S)N1CCCC |
| nt | 5% | -5.2% | nt | O=C(C[C@@H]1C/C=C\CCC(=O)OC[C@@H]2CCCN2C1=O)N[C@H](CO)Cc1ccccc1 |
| -33% | 4% | 2.0% | nt | COc1ccc2[nH]c3c(NCCCOC(C)C)ncnc3c2c1 |
| 2% | 4% | 2.2% | -2 | CCn1nnc(NC(=O)COc2cc(C)ccc2C(C)C)n1 |
| 0% | 1% | 1.0% | -24 | C/C(=N/OC(=O)c1c(-c2c(F)cccc2Cl)noc1C)c1cnccn1 |
| 4% | 6% | -2.5% | -8 | CN(c1ccccc1C(=O)N1CCN(Cc2ccc3c(c2)OCO3)CC1)S(C)(=O)=O |
| -2% | 0% | -3.2% | 6 | C=CCSc1ncc(CO)n1Cc1ccccc1 |
| -17% | -23% | 0.8% | nt | Cc1nn(C)c(C(=O)Nc2ccc3c(c2)OCO3)c1[N+](=O)[O-] |
| -16% | 12% | -3.8% | 5 | COc1ccc(C(=O)NN(C)c2nc(-c3ccccc3)nnc2C(F)(F)F)cc1 |
| -2%&10% | -12% | -0.6% | nt | COc1ccccc1N(CC(=O)NCCSCc1cccc(Cl)c1)S(C)(=O)=O |
| nt | 20% | -5.1% | nt | COc1ccc(CCNC(=O)CNS(=O)(=O)c2ccc(Cl)cc2)cc1 |
| -21% | 6% | -6.0% | 1 | CC(C)Oc1ccc(C(=O)NC2=NCCS2)cc1 |
| nt | 0% | -5.2% | nt | CCOc1cc(N2CCOCC2)c(OCC)cc1NC(=O)COC(=O)c1ccc(Cl)cc1N |

4 of the compounds above, as comma-separated lines.
compound,miR-21 FLuc,Rango dissoc inh,Rango-impB inh,GLA inh pH 4.5
Cc1cc(-n2c(C)cc(C(=O)COc3ccccc3[N+](=O)[O-])c2C)no1,-36%,13%,-0.5%,-1
CCCC[C@@H]1CNC(=S)N1CCCC,2%,-10%,2.5%,4
O=C(C[C@@H]1C/C=C\CCC(=O)OC[C@@H]2CCCN2C1=O)N[C@H](CO)Cc1ccccc1,nt,5%,-5.2%,nt
COc1ccc2[nH]c3c(NCCCOC(C)C)ncnc3c2c1,-33%,4%,2.0%,nt
